HSD17B inhib = HSD17B dehydrogenase inhibition; Q99714; recombinant HSD17B10, NADH fluorescence kinetic; many of its hits are not listed in these tables; Potency, µM (titrated, usually from 57.1 µM), for the others: top-dose activity change, negative = inhibition, actives largely listed as inhibitors; hit rate 7.6% among 75,000; active = well fitted inhibition curve with a large enough effect; inconclusive = small, poorly fitted or top-dose-only effect; inactive = no such curve, though single readings can be large or run the other way;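 also: the protocol describes HADH2 (HSD17B10) and not the HSD17B4 of the title; nearly all actives have a fitted effect of over 70% in size; most hits overshoot -100% by far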
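Enzyme plus compound, 15 min room temperature; substrate mix added (NAD+ 1 mM, beta-hydroxybutyryl-CoA 90 uM final); plates read kinetically for NADH fluorescence. HADH2 was His-tagged, E. coli-derived, 20 nM.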
* marks the source's active call; other numbers are inactive results; ? = inconclusive; [ ] = another dose, or the depositor's remark. % is scaled to controls: 0 for no effect and ±100 for the full control effect; potency is read from the fitted curve at half-maximal effect. Some of the compounds tested, so the mix of outcomes need not match the whole.

SMILES | HSD17B inhib
CC(=O)c1c(C)n(-c2ccccc2)c2ccc(OCC(O)CN3CCOCC3)cc12 (stereo not drawn) | -7%
C=C(C)C(=O)OCC(C)C | -2%
O=C(c1cc(-c2ccc(Cl)cc2Cl)on1)N1CCOCC1 | -8%
CC1Cc2ccccc2N1S(=O)(=O)c1cnc[nH]1 (stereo not drawn) | 0%
CC(C)CC(NC(=O)C(CC(C)C)NC(=O)OC(C)(C)C)C(=O)O (stereo not drawn) | -4%
OCCNc1ncnc2c1ncn2Cc1ccccc1 | 19%
COc1ccc(O[C@H]2C=C[C@@H](c3ccccc3)O[C@H]2CO/N=C\C[C@@H]2C=C[C@H](OC(C)=O)[C@H](COC(C)=O)O2)cc1 | -4%[11.4 µM]
O=Cc1ccsc1B(O)O | 0%
Cc1cc(C)c(NC(=O)CCCN2CCN(C)CC2)c(C)c1 | 6%
COc1ccc(CCNC(=O)CC(NS(=O)(=O)c2ccc(NC(C)=O)cc2)C(C)C)cc1OC (stereo not drawn) | 7%

Reprinted from the part before: four entries, followed by the next part.
SMILES | HSD17B inhib
COc1ccc(O[C@H]2C=C[C@@H](c3ccccc3)O[C@H]2CO/N=C\C[C@@H]2C=C[C@H](OC(C)=O)[C@H](COC(C)=O)O2)cc1 | -4%[11.4 µM]
O=Cc1ccsc1B(O)O | 0%
Cc1cc(C)c(NC(=O)CCCN2CCN(C)CC2)c(C)c1 | 6%
COc1ccc(CCNC(=O)CC(NS(=O)(=O)c2ccc(NC(C)=O)cc2)C(C)C)cc1OC (stereo not drawn) | 7%
CCCCN1C(=O)CC(Nc2ccc(CC)cc2)C1=O (stereo not drawn) | 2%
CCCNC(=O)OC[C@@H]1O[C@H](CCO/N=C\c2ccc(C(=O)N3[C@H](c4ccc(C)cc4)[C@@H](C)CC[C@H]3C(=O)OC)cc2)C=C[C@@H]1Oc1ccc(OC)cc1 | 4%[11.4 µM]
COc1ccccc1-c1ccc2ncnc(N3CCNCC3)c2c1 | 2%
O=C(O)CC(C(=O)NCc1ccccc1)C1CCCO1 (stereo not drawn) | 1%
CCn1c(SCc2ccccc2)nnc1-c1ccc(S(=O)(=O)N2CCCCC2)cc1 | -27%
S=c1[nH]nc(-c2ccncc2)n1Cc1ccco1 | 0%
COc1ccc(CCNS(=O)(=O)c2ccc(S(=O)(=O)N3CCCC3)cc2)cc1OC | -1%
COC(=O)c1sc2nc3c(cc2c1N)C(=O)CC(C)(C)C3 | -6%
CCOC(=O)c1c(N)nn(C(C)=O)c1-c1ccccc1 | -1%
O=C(Cn1cccc1C(=O)c1ccccc1)NCCN1CCCCCC1 | -1%
CCOC(=O)Cn1c(=O)oc2cc(S(=O)(=O)Nc3cc(Cl)ccc3OC)ccc21 | -5%
O=C1CCCN1CCC1CCN(C2CC(=O)N(Cc3ccc(N4CCCC4=O)cc3)C2=O)CC1 (stereo not drawn) | -6%
COc1ccc(OC)c(NC(=O)COC(=O)c2ccc(S(=O)(=O)N3CCOCC3)cc2)c1 | 19%
CS(=O)(=O)Nc1cccc(-c2nc(NCc3cccnc3)c3ccccc3n2)c1 | -11%
CSCSC1=C(C#N)C(c2ccc(Cl)cc2)C(C(C)=O)=C(C)N1 (stereo not drawn) | -9%
CCCCC(=O)NCCc1cc2c(C)ccc(C)c2[nH]c1=O | ?
Cn1c(Cn2c(=O)sc3ccccc32)nnc1SCC(=O)N1CCCc2ccccc21 | -9%
COCCNC(=O)CN1C(=O)CC(C)(C)S(=O)(=O)c2ccccc21 | 10%
O=C1NC(c2ccncc2)Nc2ccccc21 (stereo not drawn) | 25µM*
COCCN(CC(=O)NCc1ccc(F)cc1)C(=O)CCC(=O)Nc1ccccn1 | -2%
CCn1c(SCC(=O)OC2CCCCC2)nnc1-c1ccncc1 | -27%
C[C@@H]1Oc2ccc(C(=O)C[C@@H](C(=O)O)c3ccc4c(c3)OCO4)cc2O1 | 7%[11.4 µM]
O=C(COC(=O)CCS(=O)(=O)c1ccc(Cl)cc1)Nc1ncc(Cl)cc1Cl | ?
Cn1c(=O)c2c(nc(CN3CCN(c4ccccc4F)CC3)n2CCN2CCOCC2)n(C)c1=O | ?
Cc1[nH]c2ccccc2c1C(=O)CN1CCCCC1CCO (stereo not drawn) | -5%
Cc1c(N=C2SCC(=O)N2c2c(C)n(C)n(-c3ccccc3)c2=O)c(=O)n(-c2ccccc2)n1C | 1%
CCOC(=O)C1CCN(CC(=O)Nc2c(C(=O)OC)[nH]c3cccc(Cl)c23)CC1 | 2%
CCOC(=O)c1cc(C(O)(C(F)(F)F)C(F)(F)F)c(/N=C/N(C)C)o1 | -2%
CCN(Cc1cc2ccccc2[nH]c1=O)C(=O)C(C)C | 4%
O=C(O)C1CC(=O)N(Cc2ccc(F)cc2)C1 (stereo not drawn) | 1%
CC(=O)N1C=CN(C(C)=O)C(c2cn(C)c3ccccc23)C1c1cn(C)c2ccccc12 (stereo not drawn) | -7%
CSc1ccc(Cl)c(C(=O)OCC(=O)N2CCOCC2)c1 | ?
Cc1cccc(-c2noc(-c3ccccc3C(=O)NCC3CCCO3)n2)c1 (stereo not drawn) | 2%
CCN(CC)CCCN1C(=O)C(=O)/C(=C(/O)c2cc(C)ccc2C)C1c1cccnc1 (stereo not drawn) | -1%
CCO[P@]1(=O)OC[C@@H]2O[C@H](n3cnc4c(N)ncnc43)[C@H](O)[C@@H]2O1 | 12%[11.4 µM]
COc1ccc(-n2nnnc2SCC(=O)Nc2cccc(NC(C)=O)c2)cc1OC | -5%
CCCCC(=O)OCC(=O)Nc1ccc(OC(F)F)cc1 | 0%
Cc1sc2nc(SCC(=O)c3cccs3)n(Cc3ccco3)c(=O)c2c1C | -11%
CC(C)=CCC/C(C)=C/CO/N=C1/C[C@@H](O)[C@@H](O)[C@@H]2[C@@H]3C(=O)N(Cc4ccc5c(c4)OCO5)C(=O)[C@H]3CC[C@H]12 | 5%[11.4 µM]
COc1ccc(C(C)(C)C)cc1S(=O)(=O)N1CCN(C)CC1 | 2%
CC1Cn2c(nnc2-c2ccccc2O)S1 (stereo not drawn) | 32µM*
Cc1noc(C)c1-c1ccc2ncnc(NCCN3CCOCC3)c2c1 | -14%
O=C(NCC1CCCO1)c1ccc(Cl)c(F)c1F (stereo not drawn) | 1%
COC(=O)CC1=Nc2ccccc2NC(=O)C1 | 8%
CCCOc1ccccc1C(=O)N(Cc1cccs1)C1CCS(=O)(=O)C1 (stereo not drawn) | -2%
CCCn1c(C)nc2c(NCC3CCCN3CC)nc(C)nc21 (stereo not drawn) | 9%
CC1Oc2ccccc2N(Cc2ccccc2F)C1=O (stereo not drawn) | -6%
COc1ccc(NC(=O)Nc2ccc(OCC(=O)N3CCOCC3)cc2)cc1OC | 5%
O=C(c1ccc(CNc2c(N3CCCC3)c(=O)c2=O)cc1)N1CCc2ccccc2C1 | -2%
COc1ccc(F)cc1S(=O)(=O)N1CCCN(S(=O)(=O)c2cc(F)ccc2OC)CC1 | -8%

Part of the list above in order of length of the SMILES, lowest first:
SMILES | HSD17B inhib
CC(C)CC(NC(=O)C(CC(C)C)NC(=O)OC(C)(C)C)C(=O)O (stereo not drawn) | -4%
O=C(COC(=O)CCS(=O)(=O)c1ccc(Cl)cc1)Nc1ncc(Cl)cc1Cl | ?
Cn1c(=O)c2c(nc(CN3CCN(c4ccccc4F)CC3)n2CCN2CCOCC2)n(C)c1=O | ?

(further entries)
SMILES | HSD17B inhib
COC(=O)[C@@H](NC(=O)NCc1cccs1)C(C)C | 5%
Cc1ccccc1-c1nc(CS(=O)(=O)CC(=O)N2CCc3ccccc3C2)c(C)o1 | -19%
O=C(c1ccc2c(=O)n(C3CCCC3)c(=S)[nH]c2c1)N1CCN(C2CCCCC2)CC1 | 8%
CCS(=O)(=O)CCSc1nc2c(cc1C#N)CCCC2 | 3%
CN(C)CCNC(=O)COc1cccc(Cl)c1 | 4%
C[C@H]1CC[C@@H]2[C@@H](C)[C@H]3[C@H](C[C@H]4[C@@H]5CC=C6C[C@@H](O[C@]7(O[C@H]8O[C@@H](C)[C@@H](O)[C@@H](O)[C@@H]8O)C[C@@H](O[C@@H]8O[C@H](CO)[C@@H](O)[C@H](O)[C@@H]8O)[C@@H](O)[C@H](CO)O7)CC[C@]6(C)[C@H]5CC[C@@]34C)N2C1 | 2%[25.6 µM]
c1ccc(-c2ccc(N3CC[C@@]4(CCCNC4)C3)cc2)cc1 | 25µM*
CN(Cc1c(F)cccc1Cl)c1ccc(S(=O)(=O)N2CCOCC2)cn1 | -2%
O=S(=O)(CCc1ccccc1)N1CCOCC1 | -2%
Nc1ccc(-c2nc3ccc(-c4nc5ccc(N)cc5[nH]4)cc3[nH]2)cc1 | 20µM*

Molecules from the list above with a furan ring, fused or not:
SMILES | HSD17B inhib
S=c1[nH]nc(-c2ccncc2)n1Cc1ccco1 | 0%
CCOC(=O)c1cc(C(O)(C(F)(F)F)C(F)(F)F)c(/N=C/N(C)C)o1 | -2%
Cc1sc2nc(SCC(=O)c3cccs3)n(Cc3ccco3)c(=O)c2c1C | -11%

The list goes on.
SMILES | HSD17B inhib
COn1c(SCC(N)=O)nc2ccccc2c1=O | -6%
O=C(CCn1c(=O)[nH]c2ccccc2c1=O)N1CCN(c2cccc(C(F)(F)F)c2)CC1 | -3%
CC1(C)OC(=O)N(c2ccccn2)C1(C)O (stereo not drawn) | 8%
Cc1cccc(NC(=O)c2sc(NC(=O)c3ccco3)c(C#N)c2C)c1C | -11%
COc1ccc(CN(C(=O)CSc2nnc(-c3ccc(F)cc3)o2)c2ccc(F)cc2)cc1 | -5%
CC12CCC(=O)N1C(C(=O)O)Cc1c2[nH]c2ccccc12 (stereo not drawn) | -1%
O=C(NCc1ccco1)c1cc2cc3ccc(Cl)cc3nc2o1 | ?
O=C(Nc1ccc(-c2nc3ncccc3o2)cc1)c1ccc(Br)o1 | 16µM*
COc1ccc(S(=O)(=O)NCCC(C)C)cc1OC | 7%
Cc1cc(=S)cc(C)n1CCCn1ccnc1 | 5%
Cc1[nH]n2c(=O)c(C#N)c(-c3ccccc3)nc2c1-c1ccccc1 | 1%
CC[N+](C)(CC)CCN1C(=O)c2ccccc2S1(=O)=O | 11%[11.4 µM]
Cc1ccc(CNC(=O)[C@@H]2C[C@H]2[C@@H](NP(=O)(c2ccccc2)c2ccccc2)c2ccccc2)o1 | -13%
CC1=C(C(=O)Nc2ccccc2C)C(c2ccccc2)NC(=O)N1 (stereo not drawn) | ?
O=c1c(-c2ccc(Cl)cc2)nc2cncnc2n1Cc1ccc(F)cc1 | 5%
O=C(CSc1nnc(COc2cccc3cccnc23)o1)c1ccc(F)cc1 | -15%
COc1ccccc1S(=O)(=O)Cc1ccc(C(=O)NC(C)c2ccc3c(c2)OCCO3)o1 (stereo not drawn) | 4%
C=CCNc1nc2ccccc2nc1NS(=O)(=O)c1cccs1 | -10%
CCn1c(SCC(=O)Nc2ccc3c(c2)OCO3)nnc1-c1cnccn1 | 3%
C#CC1(O)CC(C)N(C)C(C)C1 (stereo not drawn) | 12%
Cn1cccc1CNC(=O)Nc1ccc(Cl)c(Cl)c1 | -2%
C[C@](O)(C(=O)Nc1ccc(S(=O)(=O)c2ccccc2)cc1)C(F)(F)F | -7%
c1cc2c(cc1Cn1cnnn1)OCO2 | 4%
COc1cccc(C2CC(c3ccc(Cl)cc3)Nc3nc(N)nn32)c1 (stereo not drawn) | 1%
Cc1cc(C)n(-c2nc3ccccc3c(=O)n2OCc2ccc(F)cc2)n1 | -6%
COc1cc(O)cc(/C=C/c2ccccc2)c1 | 20µM*
CCOc1cc(C(=O)OCc2ccc(C(=O)OC)o2)cc(Br)c1OC | 1%
O=C(c1ccco1)N1CCC2(CCCN(Cc3ccncc3)C2)CC1 | 3%
COC(=O)c1ccc(C(NC(=O)OCc2ccccc2)/C(C)=C/[C@@H](C)C(=O)NCc2nn(-c3ccccc3)nc2C)cc1 (stereo partly drawn) | -9%
CCCCN(CC)S(=O)(=O)c1ccc(C(=O)Nc2nnc(COC)o2)cc1 | 12%
CCOC(=O)N1CCN(c2cc(=O)n(-c3ccc(OC)cc3)c(=O)[nH]2)CC1 | 13%
CCCC(=O)Nc1ccc(Cl)c(NC(=O)C(C)(C)C)c1 | 6%
COc1ccccc1Nc1nc(N)nc(CSc2ncccn2)n1 | 0%
O=C1CCCc2c1nc(-c1ccco1)n2O | 32µM*
CCn1cnc2c1c(=O)n(CC(=O)N1CCc3ccccc31)c(=O)n2Cc1ccccc1 | 2%
CC(C)Oc1ccc2nnnn2n1 | -1%
CCN1CCN(CC(=O)Nc2sc3c(c2C#N)CCC(C)C3)CC1 (stereo not drawn) | -8%
CCCNC(=O)Nc1ccccc1C(=O)Nc1ccc(OC)cc1 | 15%
O=C(NCCCN1CCOCC1)c1c(O)c2ccccc2[nH]c1=O | 8%
CCOc1ncccc1C(=O)OCC(=O)NCCc1ccc(OC)cc1 | 4%
CCOC(=O)N/N=C1/C[C@@H](O)[C@@H](O)[C@@H]2[C@@H]3C(=O)N(Cc4ccc5c(c4)OCO5)C(=O)[C@H]3CC[C@@H]12 | 0%[11.4 µM]
CCCCc1c(O)nc(N2CCN(Cc3ccccc3)CC2)[nH]c1=O | -3%
CCSc1nnc(Cc2cc(=O)[nH]c(=O)[nH]2)n1-c1cc(C)ccc1C | 17%
N#Cc1ccc(CSc2nnc(NC(=O)C3CCCO3)s2)cc1 (stereo not drawn) | 4%
COC(=O)c1ccc(NC(=O)C(C)N2C(=O)c3ccccc3C2=O)cc1 (stereo not drawn) | 3%
CC(=O)Nc1ccc(NC(=O)Cn2cnc3c(cnn3C(C)(C)C)c2=O)cc1 | -1%
CSc1nc2c(c(=O)n1-c1ccccc1)SCC2 | -6%
